Mtb growth – M. tuberculosis H37Rv growth inhibitors, H37Rv strain (AID 1626); M. tuberculosis H37Rv growth inhibition; higher % means a stronger effect; inhibition, % at 10 µM; hits with a dose series show IC50 in µM; 220,000 tested, 0.95% active;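 active = confirmed in a dose series; inconclusive = inhibition above 80% but not taken into the dose series; inactive = below 80% or under 30% at every dose of the series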;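 note: bacteria incubated seven days before Alamar blue readout; 0% = bacteria only wells and 100% = bacteria with antibiotic wells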
Arbovirus inh – blocks arbovirus infection. 200,000 tested, 0.37% active. inhibition, % at 10 µM. arbovirus infection cell-based antiviral screen;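 active = inhibition from about 30%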;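 note: bluetongue infection of BSR cells; cell survival read as ATP light after 72 h; 0% = infected wells without compound and 100% = uninfected wells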
YopH inh – inhibitors of Yersinia enterocolitica YopH tyrosine phosphatase; 140,000 tested, 0.16% active; fluorescence Ex485/Em525; inhibition, %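 (about 10 µM by stock and volumes)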;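 active = inhibition of 50% or more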;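 note: controls were vehicle for no effect and minimum signal wells for full effect; inactives centre near -20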
RecA splice inh – inhibitors of M. tuberculosis RecA intein splicing | 290,000 tested, 0.75% active | P9WHJ3 | AID 2221 | inhibition, %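 (about 9 µM by stock and volumes)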 | cell-free RecA intein splicing, fluorescence; in the data active = inhibition above about 30%; inconclusive = no clear call, values can overlap the other calls;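 note: 0% = vehicle wells and 100% = reference inhibitor control wells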
Target sequence (P9WHJ3 whole entry, looked up, canonical isoform): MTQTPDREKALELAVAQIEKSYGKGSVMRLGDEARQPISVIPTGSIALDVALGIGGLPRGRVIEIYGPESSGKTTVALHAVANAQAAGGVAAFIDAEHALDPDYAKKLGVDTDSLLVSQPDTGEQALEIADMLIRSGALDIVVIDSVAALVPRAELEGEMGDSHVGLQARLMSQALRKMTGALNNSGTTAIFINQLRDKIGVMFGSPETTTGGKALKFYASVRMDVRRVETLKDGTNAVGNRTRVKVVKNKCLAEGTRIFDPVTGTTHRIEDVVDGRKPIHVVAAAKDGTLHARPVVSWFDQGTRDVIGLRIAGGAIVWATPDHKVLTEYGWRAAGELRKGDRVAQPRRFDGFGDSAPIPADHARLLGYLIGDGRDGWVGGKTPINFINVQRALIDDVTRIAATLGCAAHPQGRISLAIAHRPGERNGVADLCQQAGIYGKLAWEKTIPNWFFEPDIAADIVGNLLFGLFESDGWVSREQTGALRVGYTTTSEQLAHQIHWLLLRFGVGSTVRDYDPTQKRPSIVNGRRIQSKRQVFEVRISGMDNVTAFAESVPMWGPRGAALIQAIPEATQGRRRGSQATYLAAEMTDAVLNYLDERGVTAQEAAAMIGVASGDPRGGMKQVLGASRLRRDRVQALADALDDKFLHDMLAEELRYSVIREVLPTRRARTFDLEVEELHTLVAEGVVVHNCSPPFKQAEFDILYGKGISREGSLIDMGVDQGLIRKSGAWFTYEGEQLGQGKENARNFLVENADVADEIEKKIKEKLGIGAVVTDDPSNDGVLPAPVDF
Mtb betalactam – beta-lactam sensitization of Mtb H37Rv. M. tuberculosis H37Rv growth with meropenem, percent inhibition; hits of this screen are not shown here. inhibition, % at 25 µM. 330,000 tested, 0.27% active;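 active = about 74% or more and at least 40 points above the plate without the antibiotic, then above 30% in a dose series; inconclusive = first-round hits that could not be retested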;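 note: growth measured after seven days incubation then overnight dye step; 0% = bacteria only wells and 100% = bacteria with antibiotic; twin plates without the antibiotic show which effects depend on it; some results filed as inactive read as strong as hits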
Arbovirus inh repeat – further read-out of Arbovirus inh, marked with its call; inhibition, %; measured here: 10K subset replicate screen; many hits read low in the repeat;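 first of two repeat runs on a subset; 0% = infected and 100% = uninfected wells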
Starred values were filed as active, the others as inactive; ? = inconclusive; . = no result given. Only part of the results is shown, so the mix of outcomes need not match the whole.

SMILES	Mtb growth	Arbovirus inh	YopH inh	RecA splice inh	Mtb betalactam	others
CCN1CCN(C(c2cccc(OC)c2OC)c2nnnn2Cc2ccco2)CC1 (stereo not drawn)	4%	3	.	0.4	-13
COc1ccc(OCC(NS(=O)(=O)c2ccc(-n3cnnn3)cc2)C(C)C)cc1 (stereo not drawn)	.	.	.	4.1	-2
O=C(CSc1nncs1)NC(=O)NCc1ccccc1	5%	4	-36	-1.4	9
CCC1CCCCN1Cc1ccc(OC)c(OC)c1 (stereo not drawn)	-7%	2	-31	-0.1	-3	Arbovirus inh repeat=4
O=C(O)CCCc1c(-[n+]2ccccc2)[nH]c2ccccc12	3%	15	.	.	-4
CCN(C(=O)CSc1ccc2ccccc2n1)C1CCS(=O)(=O)C1 (stereo not drawn)	-4%	6	.	-3.0	-7
CC1(C)Cc2ccccc2C2CC(O)C(=O)N21 (stereo not drawn)	-3%	4	-35	0.6	-5
Cn1cnnc1Sc1ccc(C(=O)NCCC23CC4CC(CC(C4)C2)C3)cc1[N+](=O)[O-]	9%	-25	-37	-6.8	6
CC(=O)Nc1ccc(/C=C/c2ccc3cccc([N+](=O)[O-])c3n2)cc1	1%	.	.	3.0	-3
CCOC(=O)C1=C(O)CSC1=Nc1cccc2ccccc12	2%	-5	-20	-5.9	1
c1ccc(-c2nc(NCC3CCCO3)c3oc4ccccc4c3n2)cc1 (stereo not drawn)	14%	-7	-11	3.3	69
Fc1ccccc1N1CCN(Cc2cc(-c3ccccc3)on2)CC1	.	.	.	3.1	-8
O=C(CSc1nc2ccccc2c(=O)n1CCCO)NCc1ccccc1	3%	-4	1	1.2	0
O=C(CO/N=C/c1ccc(Cl)cc1Cl)NNC(=O)c1cccc(Cl)c1	1%	.	.	-0.8	10
CCOc1ccccc1/C=N/n1c(COc2ccccc2)n[nH]c1=S	.	.	.	1.7	?
CC1Oc2ccccc2C=C1/C=N/NC(=O)c1ccccc1O (stereo not drawn)	7%	12	-15	-1.9	8
CCOc1ccc(C2C(C(=O)c3ccco3)=C(O)C(=O)N2Cc2cccnc2)cc1OC (stereo not drawn)	-14%	3	-25	2.8	9
Cc1cccc(CSc2[nH]c(=O)ncc2C)c1	.	.	.	2.7	-7
COc1cccc(NC(=O)CCNC(=O)c2ccccc2Cl)c1	-10%	3	.	0.7	-4
CC(C)C(=O)N1CCC2(CC1)Oc1ccc(F)cc1C(=O)C21CC(c2ccc(Cl)cc2)=NO1 (stereo not drawn)	15%	.	.	7.7	89

Of the compounds above, these contain an aryl thioether with sulfur outside any ring:
SMILES	Mtb growth	Arbovirus inh	YopH inh	RecA splice inh	Mtb betalactam	others
O=C(CSc1nncs1)NC(=O)NCc1ccccc1	5%	4	-36	-1.4	9
CCN(C(=O)CSc1ccc2ccccc2n1)C1CCS(=O)(=O)C1 (stereo not drawn)	-4%	6	.	-3.0	-7
Cn1cnnc1Sc1ccc(C(=O)NCCC23CC4CC(CC(C4)C2)C3)cc1[N+](=O)[O-]	9%	-25	-37	-6.8	6
O=C(CSc1nc2ccccc2c(=O)n1CCCO)NCc1ccccc1	3%	-4	1	1.2	0
Cc1cccc(CSc2[nH]c(=O)ncc2C)c1	.	.	.	2.7	-7

(next part)
SMILES	Mtb growth	Arbovirus inh	YopH inh	RecA splice inh	Mtb betalactam	others
CCc1ccc(-c2cc(C)no2)cc1S(=O)(=O)N1CCN(c2ccc(OC)cc2)CC1	.	.	.	2.9	27
CC(C)Cn1c2c(c(O)c(C(=O)Nn3c(Cc4ccccc4)nc4ccccc4c3=O)c1=O)CCCC2	7%	-4	-23	2.3	-2
Cc1ccc(S(=O)(=O)Nc2ccc(NC(=O)c3ccc(F)cc3)cc2)cc1	7%	-3	.	-0.6	-10
Cc1ccc(Nc2nc3ccccc3c(=O)[nH]2)cc1C	11%	10	.	0.3	5
COc1ccc(NC(=O)Nc2sc(NS(=O)(=O)c3ccccc3)nc2C)cc1	5%	-1	.	0.5	-1
CN(C)S(=O)(=O)c1ccc(Cl)c(NC(=O)COC(=O)CN2C(=O)NC(C)(C)C2=O)c1	-10%	-3	-22	2.3	-5
COC(=O)c1c(C(=O)OC)c(C)n(Cc2cccnc2)c1C	2%	5	-18	-1.8	-9
c1ccc(CCn2nnc3ccccc32)cc1	12%	.	.	0.0	-11
CCOC(=O)CN(C(=O)COc1nc(-c2ccccc2)cc(C)c1C#N)c1ccc(C)cc1	-7%	.	.	-0.1	-5
Cc1sc2ncn(CC(=O)NCCCC(=O)N3CCC4(CC3)OCCO4)c(=O)c2c1C	-2%	14	-35	.	-6
Cc1nc(C)c(-c2csc(N)n2)s1	8%	-4	.	0.4	5
O=C(Nc1ccccc1)c1cccc(=O)o1	-8%	.	.	-0.1	-11
O=C1CSC(=O)N1CC(O)COc1ccc(Cl)cc1 (stereo not drawn)	-1%	-5	-28	2.4	1	Arbovirus inh repeat=-5
c1ccc(CN2CCN(c3nc(-c4ccccc4)nc(-n4ccnc4)n3)CC2)cc1	1.5µM*	-11	-18	16	99
Cc1ccc(F)cc1NC(=O)COC(=O)COc1ccc(C#N)cc1	.	.	.	1.5	-16
Cc1ccc(N(C(=O)c2csnn2)C(C(=O)NC(C)(C)C)c2cccnc2)cc1 (stereo not drawn)	-1%	-1	.	-2.6	5
COc1ccc(NC(=O)C(OC(=O)c2cnc(C)cn2)c2ccccc2)cc1Cl (stereo not drawn)	.	.	.	-0.8	1
Cn1c(Cc2cccs2)nnc1SCc1nc2ccccc2[nH]1	-1%	2	-48	-1.0	-17
O=c1[nH][nH]c2cc(=O)n(-c3cccc(C(F)(F)F)c3)nc12	2%	2	.	0.2	0
O=C(O)c1ccccc1C(=O)NCc1cccnc1	-6%	1	-16	-3.4	-1

Looked up one by one from the entries so far, 3 records:
SMILES	Mtb growth	Arbovirus inh	YopH inh	RecA splice inh	Mtb betalactam	others
CN(C)S(=O)(=O)c1ccc(Cl)c(NC(=O)COC(=O)CN2C(=O)NC(C)(C)C2=O)c1	-10%	-3	-22	2.3	-5
Cc1ccc(F)cc1NC(=O)COC(=O)COc1ccc(C#N)cc1	.	.	.	1.5	-16
c1ccc(CN2CCN(c3nc(-c4ccccc4)nc(-n4ccnc4)n3)CC2)cc1	1.5µM*	-11	-18	16	99

Further compounds.
SMILES	Mtb growth	Arbovirus inh	YopH inh	RecA splice inh	Mtb betalactam	others
COc1ccc(S(=O)(=O)N2CCC(C(=O)NCc3ccncc3)CC2)cc1Cl	.	.	.	-0.9	-5
CCC(Cc1ccccc1)NC(=O)C1=C(C)C(=O)OC12CCC(C)CC2 (stereo not drawn)	8%	1	.	-3.1	4
CCNc1nc(NCC)nc(OCCOC(=O)Nc2ccccc2)n1	-13%	-1	-20	0.0	-1
Cc1nn(Cc2ccc(C(=O)NN)cc2)c(C)c1Cl	-7%	.	.	1.2	-10
CN(C(=O)Nc1cnc2ccccc2c1)c1ccccc1	?	-1	.	-3.5	60
Cc1ccc(C(=O)Nc2ccc(S(=O)(=O)N3CCN(C)CC3)cc2)o1	-3%	2	2	1.3	-9	Arbovirus inh repeat=6
COc1ccc(C2c3ccc4ccccc4c3Oc3ncn(CCN(C)C)c(=N)c32)cc1 (stereo not drawn)	.	.	.	9.2	97
CCCc1nc2sc3c(c2c(=O)n1N)CCC3	.	-2	-8	-2.5	-17
Cc1nc(C(=O)O)cc2c1[nH]c1ccccc12	.	.	.	-13	-1
Cc1nn(Cc2ccccc2)c2c1C(c1ccncc1)C(C#N)=C(N)O2 (stereo not drawn)	-9%	-2	.	67*	-1
O=C(CS(=O)(=O)Cc1ccccc1)Nc1cccnc1	.	-1	-32	0.6	1
COc1ccc(NC(=O)Nc2nnc(-c3ccccc3F)s2)cc1	4%	4	.	0.8	10
COc1c(F)c(F)c(C(=O)O)c(Nc2ccccc2)c1F	1%	5	-12	-1.1	1
O=c1[nH][nH]cc1C=Nc1ccccc1O	18%	5	-20	1.8	95
CN1CC=C(/C=C/c2ccc(-c3ccccc3)cc2)CC1	.	.	.	2.8	99
CCOc1ccccc1Nc1ncnc2ccccc12	6%	9	-36	.	4
CC(C)(C)C(=O)OC/C(N)=N/OC(=O)c1ccc(Cl)c(Cl)c1	-3%	.	.	0.6	-3
COc1ccc(NC(C)=O)cc1S(=O)(=O)Nc1ccc2c(c1)OCCO2	-3%	1	.	1.4	-3
N#Cc1ccc(OCC(=O)Nc2ccc3[nH]c(=O)[nH]c3c2)cc1	.	.	.	-1.1	-14
CCOc1ccc(NC(=O)C/C(C)=N/NC(=O)Cc2ccc(Cl)cc2)cc1	.	.	.	-0.6	88
O=C(COC(=O)C1COc2ccccc2O1)NC1CCS(=O)(=O)C1 (stereo not drawn)	-10%	7	-45	-0.7	-3
Cc1csc(NC(=O)c2cccn2C)n1	-1%	0	-23	0.1	-1
COc1ccc(NC(=S)NNC(=O)c2cccnc2)cc1OC	5%	-3	.	-1.6	0
COc1ccc(Cn2c(C)nc([N+](=O)[O-])c2SCC(=O)O)cc1[N+](=O)[O-]	-2%	-1	.	1.3	-9
O=C(CCc1ccccc1)NCCCN1CCOCC1	3%	1	-16	2.8	3
COc1cnn(-c2ccccc2)c(=O)c1N(C)C	4%	-1	-1	-2.8	-3
NS(=O)(=O)c1ccc(CNC(=O)c2ccc(Cl)cc2[N+](=O)[O-])cc1	-1%	-6	-36	-1.3	-1
Cc1cc(C(=O)COC(=O)c2ccc(O)cc2)c(C)n1Cc1ccco1	-3%	2	-19	2.6	-3
COc1ccccc1C(=O)Nn1c(C)nc2ccccc2c1=O	.	.	.	0.0	4
c1ccc(C2CN3CCSC3=N2)cc1 (stereo not drawn)	-3%	-1	.	-0.4	-3
Cc1nc(-c2ccc(F)cc2)c(CC(=O)N2CCN(S(=O)(=O)c3cccc(F)c3)CC2)s1	.	.	.	-0.5	-12
Cc1c(Cl)c([N+](=O)[O-])nn1CC(=O)NCCCN1CCOCC1	.	.	.	-1.4	0
Cc1cccc(C)c1NC(=O)C1c2cccc[n+]2CC(=O)N1Cc1cccs1 (stereo not drawn)	12%	3	.	-1.0	-4
COc1ccc(-c2csc(C)n2)cc1Br	5%	4	.	6.3	5
CCCCNC(=O)CCCn1c(=O)[nH]c2ccc(Br)cc2c1=O	-14%	0	-2	-3.3	-7	Arbovirus inh repeat=-2
CC1CCC(NC(=O)c2ccc(NC3=NC4CS(=O)(=O)CC4S3)cc2)CC1 (stereo not drawn)	.	.	.	-1.5	-2
COc1cccc(NC(=O)C2CCCN(S(=O)(=O)c3cccc4cccnc34)C2)c1 (stereo not drawn)	-2%	0	-11	0.9	3	Arbovirus inh repeat=0

Screening data (PubChem)
